# TRPML1 blocker – human mucolipin-1 channel inhibition; TRPML1-inducible cells, Ca2+ dye fluorescence, FDSS; hits give low values; inhibition of EC80 agonist-evoked calcium signal; AID 624415; activity change, negative = inhibition, % (concentration not given with the values); 390,000 compounds, 0.02% hits; in the data active means activity change below about -50%; inconclusive means about -30% to -50%; inactive means above about -30%;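 note: stimulus is agonist 54-4 at its EC80 concentration; % is set by controls: 0 for no effect and ±100 for the full control effect; the text of the record puts the active cut at -80%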
# Target sequence (Q9GZU1 whole entry, looked up): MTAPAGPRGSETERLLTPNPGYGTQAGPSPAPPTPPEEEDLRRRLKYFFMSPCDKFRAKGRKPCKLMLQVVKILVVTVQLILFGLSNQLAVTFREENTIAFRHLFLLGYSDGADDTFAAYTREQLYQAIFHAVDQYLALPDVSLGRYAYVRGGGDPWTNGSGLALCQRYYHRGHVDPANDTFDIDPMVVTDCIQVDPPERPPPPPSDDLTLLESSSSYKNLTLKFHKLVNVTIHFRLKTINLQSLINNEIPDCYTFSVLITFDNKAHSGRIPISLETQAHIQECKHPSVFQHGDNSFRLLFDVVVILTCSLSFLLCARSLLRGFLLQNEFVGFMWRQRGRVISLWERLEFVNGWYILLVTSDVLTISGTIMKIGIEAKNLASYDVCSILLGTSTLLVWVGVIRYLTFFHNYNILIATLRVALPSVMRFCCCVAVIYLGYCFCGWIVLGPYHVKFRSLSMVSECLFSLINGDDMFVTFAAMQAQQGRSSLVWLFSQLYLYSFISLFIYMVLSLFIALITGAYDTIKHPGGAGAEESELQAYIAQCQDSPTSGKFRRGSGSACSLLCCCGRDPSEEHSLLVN
#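 Calcium fluorescence in TRPML1-DL cells induced overnight with Tet: a 110 s read after compound pin addition, then a 110 s antagonist read after challenge with 54-4 at 4 uM final (EC80).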
# Six1-Eya2 inh – inhibitors of human Six1/Eya2 interaction. AlphaScreen GST-Six1/His-Eya2 binding, biochemical; hits give low values; control for the full effect not named in the record. Q15475+O00167. activity change, % (test concentration not listed). 360,000 compounds, 0.56% hits; in the data active = activity change below about -65%; inconclusive = about -30% to -65%; inactive = above about -30%; note: % is set by controls: 0 for no effect and ±100 for the full control effect
#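 Compounds are tested against tagged Six1 and Eya2 proteins bridged by glutathione donor and nickel acceptor beads; after a one-hour incubation at 37 °C without light, AlphaScreen emission is recorded.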
# PINK1 expr mod – PINK1 expression modulation. Potency, µM (series often up to 76.6 µM), inactives show at the highest dose activation (PINK1 increase), hits mostly activators. PINK1 immunofluorescence, high-content cytometry, 24 h. 410,000 compounds, 0.2% hits; active = well fitted activation curve with a large enough effect; inconclusive = small, poorly fitted or top-dose-only effect; inactive = flat fitted curve, though single readings scatter; cell line not stated here;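 note: potency is the fitted concentration of half-maximal effect; % of control where 0% means no effect; nearly all actives have a fitted effect of over 65% in size; a mitochondrial uncoupler was the plate control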
#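 Stable cell line treated 24 h with compounds at 5 concentrations (CCCP controls), then fixed and immunostained for PINK1 plus nuclear and cell stains; PINK1 immunofluorescence quantified by laser-scanning microplate cytometry.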
# CtBP-E1A blk – CtBP/E1A binding inhibition; AlphaScreen GST-E1A/His-CtBP binding, 1536-well; hits give low values; control for the full effect not named in the record; activity change, % (no concentration beside the values); 340,000 compounds, 0.49% hits; in the data active means activity change below about -65%; inconclusive means about -30% to -65%; inactive means above about -30%; note: % is set by controls: 0 for no effect and ±100 for the full control effect
#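 Protein mix (5X: 125 nM each GST-E1A, His-CtBP) was incubated with pinned compound 2 h at 37 deg C in dark, in 50 mM Tris pH 8.0 buffer with 300 mM NaCl. Glutathione donor and nickel acceptor beads followed; AlphaScreen signal read after 1 h.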
# D2 agonist – human D2 receptor agonism in beta-arrestin assay; P14416; DiscoveRx PathHunter D2 beta-arrestin, luminescence, 90 min; 100% = 57 uM dopamine signal; activation, % (test concentration not listed); 360,000 compounds, 0.084% hits; AID 624465; in the data active = activation above about 40%; inconclusive = about 15% to 40%; inactive = below about 15%; note: compound concentration not given in the record; the text of the record calls up to 30% inactive
# Target sequence (P14416 whole entry, looked up): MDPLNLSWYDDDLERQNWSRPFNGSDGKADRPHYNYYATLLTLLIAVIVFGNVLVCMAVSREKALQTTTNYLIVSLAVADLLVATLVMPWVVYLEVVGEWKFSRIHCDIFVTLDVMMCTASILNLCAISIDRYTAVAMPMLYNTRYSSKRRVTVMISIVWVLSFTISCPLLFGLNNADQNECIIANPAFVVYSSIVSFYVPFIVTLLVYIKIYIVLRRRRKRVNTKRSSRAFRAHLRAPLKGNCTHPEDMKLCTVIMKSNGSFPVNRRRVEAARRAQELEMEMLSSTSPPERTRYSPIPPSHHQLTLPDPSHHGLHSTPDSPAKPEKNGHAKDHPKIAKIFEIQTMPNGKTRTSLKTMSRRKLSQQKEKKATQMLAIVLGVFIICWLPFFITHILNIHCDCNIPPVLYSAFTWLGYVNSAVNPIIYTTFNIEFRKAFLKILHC
#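 DiscoveRx PathHunter D2 beta-arrestin cells (2,100/well) attached overnight, then compound-stimulated 90 min at 37 C in HBSS/10 mM HEPES/0.1% Tween-20 buffer; beta-galactosidase complementation read by luminescence after 1 h at ambient temperature. Dopamine 57 uM final (EC100) as control.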
# TRPML1 ag – human mucolipin-1 channel agonism; Q9GZU1; TRPML1-expressing cells, Ca2+ dye fluorescence, FDSS; host cell line not named in the record; reference of the full effect not given here; activation, % (test concentration not listed); 410,000 compounds, 0.12% hits; in the data active = activation above about 50%; inconclusive = about 30% to 50%; inactive = below about 30%; note: 0% is about no effect; the text of the record puts the active cut at 80%
#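 Tetracycline-induced TRPML1-DL cells are seeded and incubated overnight before loading with a no-wash Ca2+ dye and quencher. Agonist activity is taken from the 110 s fluorescence read following compound pin-transfer on an FDSS, before EC80 54-4 challenge.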
# * marks the source's active call; other numbers are inactive results; ? = inconclusive; . = no result given; [ ] = remark or other dose.
SMILES,TRPML1 blocker,Six1-Eya2 inh,PINK1 expr mod,CtBP-E1A blk,D2 agonist,TRPML1 ag
Cn1nc(C(F)(F)F)cc1C(=O)Nc1ccc(-c2ccno2)cc1,-1,0,2.2%,2,4.5,-0.5
CCC1C(=O)N(C)CCc2ccccc21 (stereo unspecified),4,21,9.1%,-7,-4.4,0.3
O=C(N/N=C/c1cc2c(cc1Cl)OCO2)c1ccc2c(c1)OCCO2,-3,-10,10%,-8,2.9,-0.4
Cc1ccc(C(=O)NC2CC3CCCC(C2)N3C(=S)NCc2ccco2)cc1 (stereo unspecified),8,-10,-0.9%,-1,-1.2,-0.6
O=C(CSc1nnc(-c2ccco2)n1CC1CCCO1)NC1CCCC1 (stereo unspecified),-1,6,0.4%,-15,-2.1,0.3
COc1ccc(-c2cc(NC=O)c3ncc(-c4ccc(OC)c(OC)c4)n3c2)cc1,.,-12,0.0%,-15,12,-0.9
COc1cc(/C=N/NC(=O)c2cccc(S(=O)(=O)N3CCCC3)c2)cc(OC)c1O,-2,?,1.6%,?,5.8,-0.9
O=C(CCC1CCCCC1)N1CCN(Cc2ccc3c(c2)OCO3)CC1,6,-4,-2.5%,-5,-1.9,-0.7
C/C(=N\O)C(C)NC(=O)c1ccccc1 (stereo unspecified),9,-7,-0.9%,-6,-1.1,0.6
Cc1cc(Cl)ccc1C(=O)C1CCCN(C(=O)c2cc(C(C)C)no2)C1 (stereo unspecified),34,7,-0.4%,2,-3.7,1.2
O=C(Nc1ccc(F)c(Cl)c1)C1CCN(S(=O)(=O)c2ccc3c(c2)CCCN3C(=O)C2CCC2)CC1,8,.,-1.8%,.,.,-1.0
CCOc1ccc(NC(=O)CN2C(=O)NC(C)(c3ccc(OC(F)F)cc3)C2=O)cc1 (stereo unspecified),-10,-8,3.9%,5,-7.4,18
CN(C)c1nccc(Nc2ccccc2)c1C#N,-6,-8,3.5%,-1,-6.1,1.2
Cn1c(=O)[nH]c(=O)c2c1nc(SCCO)n2CCCc1ccccc1,-3,2,2.0%,0,-5.8,0.1
CSc1nc(N)nc(SCC(=O)C23CC4CC(CC(C4)C2)C3)c1C#N,47,-8,?,8,-0.1,0.3
CC(C)(C)NC(=O)C1CCC(C)(C(=O)O)C1(C)C (stereo unspecified),-15,0,-14%[38.3 µM],-3,-1.5,-0.4
O=C(CSC1=NCCS1)N1N=C(c2cccs2)CC1c1ccc(F)cc1 (stereo unspecified),11,-4,-0.1%,3,1.9,4.1
COc1ccc(NC(=O)Cn2ncc3c(C)n(Cc4cccc(Cl)c4)c(C)c3c2=O)cc1,8,.,-2.4%,.,.,-0.9
O=C(CCNS(=O)(=O)c1ccc2[nH]c(=O)oc2c1)NCc1ccccc1,28,-1,-0.3%,0,-0.7,-0.1
COc1cccc(C(=O)N2CCN(C(=O)Cc3ccccc3)CC2)c1,19,5,-1.9%,-4,-0.5,0.0
CCOC(=O)c1sc(NC(=O)Cc2ccc(C)cc2)nc1C,-5,-1,1.4%,.,6.8,1.9
Cc1[nH]c(=O)n(C(C)C)c(=O)c1Br,-19,-15,2.0%,-12,-3.7,0.7
COc1cccc(C(=O)Nc2cccc(-c3nnc(-c4ccccc4)o3)c2)c1,5,-16,11%,-24,10,1.3
O=C1CCCc2cc(S(=O)(=O)NCC3CCC(C(=O)Nc4ccccc4F)CC3)ccc2N1 (stereo unspecified),19,.,2.1%,.,.,-0.5
O=C(CNC(=O)c1cc(S(=O)(=O)N2CCOCC2)ccc1N1CCCC1)Nc1ccc(F)c(F)c1,8,-7,0.0%,-9,-1.0,2.4
CN(C)CCNc1oc(COc2ccc(-c3ccccc3)cc2)nc1C#N,8,-21,9.9%[38.3 µM],-29,2.9,0.5
Cc1noc(C)c1C(=O)Nc1nc(-c2ccc([N+](=O)[O-])cc2)cs1,4,-6,17%,-2,2.0,0.9
Cc1ccc([C@H]2C[C@H](n3cc(-c4ccc(F)cc4)nn3)[C@@H](O)CN2C(=O)c2cccs2)cc1,40,-26,-1.3%,5,-2.9,0.7
OC[C@@H]1CN(Cc2ccc(Cl)cc2)C[C@H](n2cnc3c(N4CCCC4)ncnc32)O1,.,0,1.9%,-21,3.8,-0.4
O=C(O)CNC(=O)c1ccccc1NC(=O)c1ccco1,5,4,-0.1%,-1,0.8,0.0
C[C@@H]1CCCCO[C@H](CN(C)S(=O)(=O)c2ccc(F)cc2)[C@@H](C)CN([C@H](C)CO)C(=O)c2cc(NC(=O)Nc3ccc(C(F)(F)F)cc3)ccc2O1,-12,-9,2.3%,2,-7.1,-0.5
Cc1ccccc1NC(=O)NC1CCCc2ccccc21 (stereo unspecified),-7,4,-1.1%,4,-0.4,0.3
Cc1ccc(S(=O)(=O)N2CCN=C2SCc2cccnc2)cc1,-13,3,-0.1%,.,-29,0.0
COC(=O)[C@]12CCCCC=C1N(Cc1ccc(Cl)cc1Cl)C(=O)[C@H](CC(=O)NCCC(C)C)C2,.,1,?,-7,.,-0.8
CCN(CC)C(=O)C1=C(C)N(CCC2=CCCCC2)C(=O)C(CC(=O)NCc2ccco2)C1 (stereo unspecified),5,2,-0.5%,-3,-8.2,-0.1
O=C(COc1cccnc1[N+](=O)[O-])NCc1ccc2c(c1)OCO2,-12,8,-1.1%,11,2.2,1.1
O=S(=O)(/N=C(/Nc1nc2ccccc2s1)c1ccccc1)c1ccccc1,12,1,1.4%,-2,2.2,1.1
O=C(N/N=C/c1ccc(-c2cccc(C(F)(F)F)c2)o1)c1ccccc1O,7,-6,6.2%,1,-3.7,-0.5
O=C(c1ccccc1F)N1c2nc(-c3ccco3)nn2C2(CCCCC2)[C@@H]2CCCC[C@@H]21,32,.,4.7%,.,.,3.7
CCOc1ccc(Cl)cc1/C=N/O,19,3,.,1,-1.2,1.4

# Among those listed so far, three have a cyano group.
SMILES,TRPML1 blocker,Six1-Eya2 inh,PINK1 expr mod,CtBP-E1A blk,D2 agonist,TRPML1 ag
CN(C)c1nccc(Nc2ccccc2)c1C#N,-6,-8,3.5%,-1,-6.1,1.2
CSc1nc(N)nc(SCC(=O)C23CC4CC(CC(C4)C2)C3)c1C#N,47,-8,?,8,-0.1,0.3
CN(C)CCNc1oc(COc2ccc(-c3ccccc3)cc2)nc1C#N,8,-21,9.9%[38.3 µM],-29,2.9,0.5

# New compounds follow:
SMILES,TRPML1 blocker,Six1-Eya2 inh,PINK1 expr mod,CtBP-E1A blk,D2 agonist,TRPML1 ag
CC(=O)N(/N=C1\Sc2ccccc2C1=O)c1ccc(C)cc1C,-2,-10,-2.6%,-4,-9.9,0.0
CCOC(=O)C1=C(N)Oc2cc(O)ccc2C1c1ccc(F)cc1F (stereo unspecified),-28,-5,6.3%,4,-2.3,12
CC(=O)N(/N=C1\Sc2ccccc2C1=O)c1cccc(C)c1,7,-28,2.6%,-25,-10,1.0
O=C(c1ccc2c(c1)N(Cc1ccccc1F)C(=O)c1ccccc1S2(=O)=O)N1CCCCCC1,2,.,0.1%,.,.,-0.9
CCN(CC)S(=O)(=O)c1ccc(N2CCCC2)c(NC(=O)Cc2ccc(OC)cc2)c1,8,-16,0.9%,14,-0.6,2.1
CC1=C(C)CC2(SC1)C(=O)N(c1ccccc1)N=C2N (stereo unspecified),-19,-14,1.6%,-16,-2.4,0.4
COC(=O)C1CCN(CCCOc2ccc(CN3CCN(c4ccc([N+](=O)[O-])cc4)CC3)cc2)CC1,-14,-12,6.8%,-6,45*,-0.5
C=CCn1c(CSc2nc3ccccc3s2)nnc1SCC(=O)OCC,0,-1,0.5%,-1,-1.1,-0.7
Cn1c(CCC(=O)OCC(=O)Nc2ccc(Oc3ccccc3)cc2)nc(=O)c2ccccc21,17,0,2.3%,.,-0.6,1.3
O=C(COC(=O)c1cccc([N+](=O)[O-])c1)NCC1CCCO1 (stereo unspecified),-3,4,0.8%,8,-5.2,4.2
CCNC(=O)CN(c1ccc(Oc2ccccc2)cc1)S(=O)(=O)c1ccccc1,7,-2,2.7%,5,-3.2,1.3
NC(=O)CS(=O)(=O)c1nc2ccccc2n1Cc1ccccn1,-9,0,1.3%,0,-2.9,-0.1
Cc1ccc(NC(=O)c2cc3ccccc3o2)cc1Cl,54,6,4.4%,1,-0.4,4.5
CCCn1c(=O)c2ccccc2n2c(SCCNCCO)nnc12,-6,-19,0.3%,.,-1.9,0.3
Cc1ccc(O)c(C(=O)c2cnn(-c3ccccc3)c2)c1,3,-7,3.5%,2,-0.6,3.2
Cc1ccc(NS(=O)(=O)c2ccc3nc(-c4ccccc4)[nH]c3c2)c(Br)c1,-7,.,7.6%,.,.,-0.5
Cc1cccc(OCCCCCNCCO)c1,-4,0,1.1%[38.3 µM],8,-1.8,-0.3
COC(=O)c1c(N2C(=O)CC(Sc3ncccc3C(=O)O)C2=O)sc(C)c1C (stereo unspecified),-15,0,-0.9%,-14,-5.3,-0.4
COc1ccc(CCNC(=O)C(=O)NCC2OCCN2S(=O)(=O)c2cc(F)ccc2F)cc1 (stereo unspecified),-10,6,-0.6%,1,-4.8,-0.2
Cc1ccc2c(c1)N(Cc1ccccn1)C(=O)C(C)O2 (stereo unspecified),19,8,1.1%,3,-2.2,-0.4
COc1ccccc1C(=O)N=C1NC(=O)CC2C(=O)NCCN12 (stereo unspecified),-11,4,-2.3%,.,-5.3,-0.3
COCCN(Cc1cc2cc3c(cc2nc1Cl)OCO3)C(=O)Nc1ccccc1OC,1,1,.,10,-1.2,0.5
COc1ccc([N+](=O)[O-])cc1NC(=O)C1CCCCC1C(=O)O (stereo unspecified),8,7,0.9%,8,-1.5,0.7
Cc1ccc(/C=C(\C#N)C(=O)Nc2cccc(C)n2)cc1,26,1,9.4%,.,-6.3,-0.6
COC/C=C/C1=CC2=CC(=O)C(C)(OC(=O)c3cnc4ccccc4n3)C(=O)C2=CN1CCCOC(C)C (stereo unspecified),1,-5,1.8%,-9,-1.5,-0.2
Cc1cccc2c1N(C)C(=O)C2=O,-2,0,0.5%,.,-6.1,-0.7
CN(C(=O)c1ccccc1C(=O)OCC(=O)Nc1ccc(OC(F)F)cc1)c1ccccc1,-6,0,1.1%,9,1.3,2.4
N#Cc1c(N)nc(SCC(=O)NCCc2ccccc2)c(C#N)c1-c1cccs1,10,9,16%,-1,-1.1,0.2
COC(=O)c1sccc1NC(=S)N1CCN(c2ccccc2)CC1,10,4,-0.6%,3,-4.2,0.7
CCC1(C)Cc2sc3c(=O)[nH]c(=S)[nH]c3c2CO1 (stereo unspecified),2,-3,0.7%,.,5.4,0.9

# Results in TRPML1 blocker, D2 agonist and PINK1 expr mod, for some of the entries so far:
molecule	TRPML1 blocker	D2 agonist	PINK1 expr mod
Cc1ccc(O)c(C(=O)c2cnn(-c3ccccc3)c2)c1	3	-0.6	3.5%
Cc1ccc(NS(=O)(=O)c2ccc3nc(-c4ccccc4)[nH]c3c2)c(Br)c1	-7	.	7.6%
Cc1cccc(OCCCCCNCCO)c1	-4	-1.8	1.1%[38.3 µM]
COC(=O)c1c(N2C(=O)CC(Sc3ncccc3C(=O)O)C2=O)sc(C)c1C (stereo unspecified)	-15	-5.3	-0.9%
COc1ccc(CCNC(=O)C(=O)NCC2OCCN2S(=O)(=O)c2cc(F)ccc2F)cc1 (stereo unspecified)	-10	-4.8	-0.6%
